Bioassay records (PubChem BioAssay)
Mtb H37Rv: M. tuberculosis H37Rv growth inhibitors, H37Rv strain (AID 1626); M. tuberculosis H37Rv growth inhibition; higher % means a stronger effect; inhibition, % at 10 µM, or IC50 in µM where a hit was titrated; 220,000 tested, 0.95% active;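 active means confirmed in a dose series; inconclusive means inhibition above 80% but not taken into the dose series; inactive means below 80% or under 30% at every dose of the series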;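 further: bacteria incubated seven days before Alamar blue readout; 0% = bacteria only wells and 100% = bacteria with antibiotic wells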
RecA intein inh: Mtb RecA intein splicing inhibition; P9WHJ3; cell-free RecA intein splicing, fluorescence; inhibition, %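 (about 9 µM by stock and volumes)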; 290,000 tested, 0.75% active; in the data active means inhibition above about 30%; inconclusive means no clear call, values can overlap the other calls;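 further: 0% = vehicle wells and 100% = reference inhibitor control wells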
Target sequence (P9WHJ3 whole entry, looked up): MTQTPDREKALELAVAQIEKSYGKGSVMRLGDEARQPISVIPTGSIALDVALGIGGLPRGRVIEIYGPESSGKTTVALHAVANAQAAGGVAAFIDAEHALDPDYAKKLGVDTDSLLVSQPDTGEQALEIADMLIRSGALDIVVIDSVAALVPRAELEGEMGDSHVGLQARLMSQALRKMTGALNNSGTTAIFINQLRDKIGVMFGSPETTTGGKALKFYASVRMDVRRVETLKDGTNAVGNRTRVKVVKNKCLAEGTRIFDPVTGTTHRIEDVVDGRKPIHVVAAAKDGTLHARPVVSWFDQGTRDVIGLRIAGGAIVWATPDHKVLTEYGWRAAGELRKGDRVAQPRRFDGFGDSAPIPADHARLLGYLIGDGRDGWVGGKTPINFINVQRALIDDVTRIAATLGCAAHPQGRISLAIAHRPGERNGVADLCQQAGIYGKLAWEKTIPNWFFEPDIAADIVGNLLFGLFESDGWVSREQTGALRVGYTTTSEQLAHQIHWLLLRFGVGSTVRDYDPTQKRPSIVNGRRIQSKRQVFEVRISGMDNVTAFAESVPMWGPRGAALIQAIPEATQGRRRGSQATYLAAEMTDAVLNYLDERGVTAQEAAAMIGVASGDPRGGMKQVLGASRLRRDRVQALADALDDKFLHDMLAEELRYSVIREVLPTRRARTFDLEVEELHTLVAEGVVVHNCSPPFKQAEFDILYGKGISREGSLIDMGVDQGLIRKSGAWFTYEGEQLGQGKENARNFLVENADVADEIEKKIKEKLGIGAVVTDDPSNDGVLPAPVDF
YopH PTP inh: YopH (Yersinia) phosphatase inhibition. 140,000 tested, 0.16% active. inhibition, %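 (about 10 µM by stock and volumes)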. fluorescence Ex485/Em525;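 active means inhibition of 50% or more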;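 further: controls were vehicle for no effect and minimum signal wells for full effect; inactives centre near -20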
Mtb betalactam: beta-lactam sensitization of Mtb H37Rv; M. tuberculosis H37Rv growth with meropenem, percent inhibition; hits of this screen are not shown here; inhibition, % at 25 µM; 330,000 tested, 0.27% active; AID 434955;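 active means about 74% or more and at least 40 points above the plate without the antibiotic, then above 30% in a dose series; inconclusive means first-round hits that could not be retested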;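 further: growth measured after seven days incubation then overnight dye step; 0% = bacteria only wells and 100% = bacteria with antibiotic; twin plates without the antibiotic show which effects depend on it; some results filed as inactive read as strong as hits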
Arbovirus anti: blocks arbovirus infection | arbovirus infection cell-based antiviral screen | inhibition, % at 10 µM | 200,000 tested, 0.37% active | AID 1251;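 active means inhibition from about 30%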;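 further: bluetongue infection of BSR cells; cell survival read as ATP light after 72 h; 0% = infected wells without compound and 100% = uninfected wells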
Arbovirus anti repeat: recorded beside Arbovirus anti, whose call it bears; inhibition, %; measured here: 10K subset replicate screen; many hits read low in the repeat;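 first of two repeat runs on a subset; 0% = infected and 100% = uninfected wells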
Starred values were filed as active, the others as inactive; ? = inconclusive; nt = not tested or not shown.

SMILES	Mtb H37Rv	RecA intein inh	YopH PTP inh	Mtb betalactam	Arbovirus anti	others
c1ccc(COCCN2CCN(CCOCc3ccccc3)CC2)cc1	-1.2%	-0.6	-15.9	-6.3	-5.0
OCCNC1=NCCN1	-4.3%	3.2	-49.0	-6.3	0.4
N=C1C(=O)OCC1c1cc(Cl)ccc1NC(=O)Nc1ccccc1 (configuration not stated)	1.9%	-2.1	-65.5	-0.7	5.7
COc1cccc(CN(C)C(=O)c2cccc(OCc3ccccc3)c2)c1	nt	17.4	nt	-5.7	nt
CC(=O)c1ccc(N2CCN(C(=O)c3ccc(NC(=O)C4CCCO4)cc3)CC2)cc1 (configuration not stated)	-10.6%	nt	-43.0	-8.2	-2.0	Arbovirus anti repeat=4.4
CCc1nn(CC(=O)NCCCN2CCOCC2)c(=O)c2cc3sccc3n12	nt	-1.6	nt	5.4	nt
COc1ccccc1NC(=O)c1cc2ccccc2o/c1=N\O	9.2%	-2.3	nt	-0.5	-8.6
O=C(CSc1nnc(-c2ccncc2)n1CC1CCCO1)Nc1nccs1 (configuration not stated)	6.3%	-0.6	-62.4	-12.3	-3.8
CCOc1ccccc1OCCCC(=O)Nc1ccc(OC)nc1	-10.3%	2.9	-24.9	11.2	5.5
CS(=O)(=O)c1ccc(C(=O)N2CCC(C(=O)O)(c3ccccc3)CC2)cc1	nt	0.8	nt	-5.3	nt
CCNc1nc(NCc2ccccc2)nc(SCC(=O)Nc2ccccc2)n1	6.9%	5.9	-30.7	5.5	6.0
COCc1nc(-c2cc(Br)ccc2OC)no1	4.1%	-11.7	-6.0	-3.9	1.9
O=C(NCCOc1ccccc1)C1CCC(=O)N(CCCN2CCCC2=O)C1 (configuration not stated)	nt	-0.8	nt	-13.6	nt
CCNc1ccc(C(=O)OCC(=O)NC(=O)NCC(C)C)cc1[N+](=O)[O-]	6.2%	1.2	nt	-4.0	3.9
Cc1ccc(CCNC(=O)CSCc2ccc(F)cc2)cc1	nt	2.8	nt	-8.9	nt

Already shown: an excerpt of the list.
SMILES	Mtb H37Rv	RecA intein inh	YopH PTP inh	Mtb betalactam	Arbovirus anti	others
c1ccc(COCCN2CCN(CCOCc3ccccc3)CC2)cc1	-1.2%	-0.6	-15.9	-6.3	-5.0
OCCNC1=NCCN1	-4.3%	3.2	-49.0	-6.3	0.4
N=C1C(=O)OCC1c1cc(Cl)ccc1NC(=O)Nc1ccccc1 (configuration not stated)	1.9%	-2.1	-65.5	-0.7	5.7
COc1cccc(CN(C)C(=O)c2cccc(OCc3ccccc3)c2)c1	nt	17.4	nt	-5.7	nt

(listing goes on)
SMILES	Mtb H37Rv	RecA intein inh	YopH PTP inh	Mtb betalactam	Arbovirus anti	others
Cc1ccc(C(=O)c2ccccc2C(=O)O)cc1C	4.0%	-0.5	nt	1.2	-0.7
CCCCn1c(N)c(N(CC(C)C)C(=O)c2oc3ccc(Br)cc3c2C)c(=O)[nH]c1=O	nt	0.2	nt	-6.7	nt
COc1cc(NC(=O)c2ccco2)c(OC)cc1NC(=O)CSc1nnc(-c2cccs2)n1C	4.8%	0.3	-23.4	11.8	3.2
CCn1c(SCc2cccc(F)c2)nnc1-c1cccnc1	2.4%	nt	nt	4.1	2.0
Cc1ccc(NC(=O)C(Nc2cccc(C)c2)c2ccccc2)cc1 (configuration not stated)	10.5%	6.6	5.1	-4.1	-5.8
COc1ccc(-c2ccc(-c3noc(-c4cccc(OC)c4)n3)c(OC)n2)cc1	0.9%	0.3	-4.5	94.7	-3.5
c1ccc(C2CC(c3ccccc3)n3c(nc4ccccc43)N2)cc1 (configuration not stated)	9.5%	-1.3	-3.9	6.6	-9.9
COC(=O)c1ccc(N2CCOCC2)c(NC(=O)c2ccco2)c1	nt	1.2	nt	-9.1	nt
O=C(NCc1ccc(F)cc1)Nc1cccc([N+](=O)[O-])c1	5.2%	-2.6	nt	11.6	10.7
CN(Cc1ccccn1)Cc1nc(-c2ccc(Cl)cc2)no1	-3.5%	2.1	nt	13.2	15.0
CSC1=N/C(=C\c2ccc(Cl)cc2)C(=O)N1N(C)C	3.5%	3.2	nt	5.0	nt
CCCCC(=O)Nc1ccc(NC(=O)c2ccc3c(c2)OCO3)cc1OC	2.8%	-0.8	-2.0	55.8	-25.8
Cc1cccc(NC(=O)C2CC(=O)N(Cc3ccccc3)C2)n1 (configuration not stated)	nt	-4.2	nt	-6.1	nt
O=C1N(Cc2cccnc2)C[C@@H]2C[C@@H](c3cccc(C(F)(F)F)c3)N3CCC[C@@]123	2.6%	1.6	nt	-2.6	0.0
COc1ccc(C)cc1NC1=NC(C)(C)CS1	-0.4%	1.2	nt	2.0	-0.7
CCOC(=O)c1csc(NC(=O)CSc2nnnn2-c2ccc(OC)c(OC)c2)n1	3.9%	0.3	-11.9	-4.4	-10.6
Oc1ccccc1CNCC12CC3CC(CC(C3)C1)C2	nt	0.4	nt	-6.5	nt
CC(C)n1cc(CN2CCCC(CNS(=O)(=O)c3cccc4cccnc34)C2)cn1 (configuration not stated)	nt	-3.3	nt	?	nt
CCOc1ccc(Cn2nnc(C(=O)NCc3ccccc3)c2N)cc1	10.2%	2.3	-16.7	-3.1	-1.9	Arbovirus anti repeat=-0.5
NC(=O)NC(=O)CSc1cccc(C(F)(F)F)c1	8.0%	-1.3	-14.5	7.2	-1.3
O=C(NCc1cccnc1)c1ccccc1-c1ccccc1	2.8%	1.2	nt	-4.7	-1.5
Cc1cc(C)n(-c2ccc(C(=O)OCc3nnc(-c4ccccc4)o3)cc2)n1	-0.9%	-0.7	-30.2	-0.3	-1.3
Cc1nc(CNS(=O)(=O)c2ccc(F)cc2)cs1	nt	-0.5	nt	-3.4	nt
C=CCN(Cc1nc(-c2ccccc2)no1)C(=O)c1ccco1	nt	3.3	nt	-6.1	nt
O=C(/C(N=Nc1cccc([N+](=O)[O-])c1)=C(/O)c1ccc(Br)cc1)C(F)(F)F	48.3%	9.3	nt	-0.1	nt
CCC(C)C(=O)Nc1nnc(SCC(=O)Nc2ccc(F)cc2)s1 (configuration not stated)	2.1%	3.1	nt	6.3	12.7
CCC1CCCCN1Cc1ccc(CNC(=O)CCc2nnc3ccc(N4CCCCC4)nn23)o1 (configuration not stated)	nt	-4.0	nt	-0.3	nt
CCC(=NCc1cccnc1)c1c(O)n(-c2ccc(C)cc2)c(=O)[nH]c1=O	-1.8%	-2.6	nt	-4.7	nt
COc1cc(CC(CC(=O)O)CC(C)OCc2ccccc2)cc(OC)c1 (configuration not stated)	0.2%	3.8	-28.1	1.3	-7.9
C=C(C)CSC1=C(C#N)C(c2ccccc2Cl)CC(=O)N1 (configuration not stated)	-3.4%	-1.1	-45.0	nt	-6.1
NC(N)=NS(=O)(=O)c1ccc(N/C=C/C(=O)c2ccc(Cl)c(Cl)c2)cc1	nt	-2.0	nt	5.6	nt
COCCCNCCCCOc1ccc(Br)cc1Cl	4.8%	0.6	2.1	14.1	-37.0
COc1ccccc1-c1ccc(SCC(=O)Nc2cc(C)on2)nn1	-0.3%	-0.5	nt	4.8	2.7
COc1cccc(N(C(C)=O)c2nc(C)cc(C)c2C#N)c1	12.9%	-0.8	-15.8	-3.2	0.8	Arbovirus anti repeat=-7.5
Cc1nnc(-n2cnc3ccccc32)c2ccccc12	-3.8%	nt	-27.1	2.3	3.0
CC(=O)c1ccc(NC(=S)NCCc2cccc(Cl)c2)cc1	9.8%	6.8	nt	3.1	7.3
Nc1ncc(Br)cc1S(=O)(=O)Nc1ccccc1F	nt	2.6	nt	-1.1	nt
O=C(C/C=N/OCc1c(Cl)cccc1Cl)c1ccccc1	-7.0%	10.6	-52.4	-0.9	-5.2
COC(=O)c1cc2ccc(OC)c(OC)c2c(=O)s1	9.7%	-8.0	-16.6	9.5	-0.5
CC(NC(=O)c1cc(F)c(F)cc1Cl)c1ccncc1 (configuration not stated)	4.3%	3.8	nt	5.0	0.5
COc1ccc(Nc2cc(C)nc(-n3nc(C)cc3C)n2)cc1	6.15µM*	-0.6	14.1	93.1	-10.8
O=C(O)CCN1C(=O)C2C3C=CC(C2C1=O)C1C(=O)N(CCC(=O)O)C(=O)C31 (configuration not stated)	nt	-3.2	nt	0.9	nt
CCC(C)NC(=O)c1ccc2c(Cl)c3c(nc2c1)CCC3 (configuration not stated)	6.5%	3.5	nt	-3.2	nt
CCOC(=O)CC(=O)CSc1nc2c(cc1C#N)CCC2	-10.3%	-5.2	2.2	1.9	-10.6
O=C(OCc1csc(-c2ccccc2)n1)c1cccs1	41.5%	3.7	-5.9	69.8	-0.6
C=CCc1cccc(/C=N/NC(=O)CNc2ccccc2OC)c1O	0.5%	3.3	nt	5.3	-30.4
Cc1cc(N=Cc2c(O)n(-c3cccc(C(F)(F)F)c3)c(=O)c3ccccc23)no1	5.4%	-1.5	1.6	73.5	-8.5
c1csc(-n2nc3ccccc3n2)c1	1.1%	-1.5	-44.1	5.3	0.2
O=C(c1cc(COc2c(F)cccc2F)on1)N1CCc2ccccc2C1	-3.9%	7.3	nt	-12.8	-0.6
Clc1cccc(-c2nc(NCCN3CCOCC3)c3ccccc3n2)c1	12.6µM*	-1.0	nt	63.5	-17.5
COCCn1c(SCc2ccc(F)cc2)nc2ccccc2c1=O	nt	-0.1	nt	73.7	nt
O=C(c1cnn2c(-c3ccccc3)cc(-c3ccccc3)nc12)N1CCN(Cc2ccccc2)CC1	nt	-10.3	nt	80.7	nt
O=C(Nc1cc(Cl)ccc1-n1cncn1)c1ccc(Br)o1	nt	-0.4	nt	1.8	nt
CC1CCCN(CCCNC(=O)c2nn(C)c3c2CS(=O)(=O)c2ccccc2-3)C1 (configuration not stated)	nt	-3.6	nt	0.0	nt
CSc1nc(SCC(=O)NCc2ccco2)c2c3c(sc2n1)COC(C)(C)C3	-8.8%	3.6	-18.5	?	-1.5	Arbovirus anti repeat=-8.8
CS(=O)(=O)NNC(=O)c1sccc1OCc1ncc(C(F)(F)F)cc1Cl	-7.3%	-4.0	nt	-2.7	nt
CN(C)c1nc(OCCNC(=O)Nc2ccc(Cl)cc2)nc(N(C)C)n1	1.6%	-1.1	nt	-10.9	-13.9
CCOc1ccc(CC(=O)OCn2nnc3ccccc3c2=O)cc1	44.5%	0.3	nt	99.2	13.0
CCn1cc(/C=N\NC(=O)c2csc3ccccc23)c(C)n1	nt	-2.8	13.1	69.0	-2.7
CN(C)CCNC(=O)COc1cccc2c1OC(C)(C)C2	-2.6%	0.4	nt	-6.2	4.7
Additional records
SMILES	Mtb H37Rv	RecA intein inh	YopH PTP inh	Mtb betalactam	Arbovirus anti	others
CC(C)(C)c1ccc(-c2cn(-c3ccc(Br)cc3)c3[n+]2CCCS3)cc1	2.62µM*	4.5	nt	nt	-7.8
CC(C)(C)c1ccc(C(=O)N2CCN(CCNC(=O)C(=O)NCc3ccc(Cl)cc3)CC2)cc1	nt	3.1	nt	99.2	nt
CCCOc1ccc(C2=NNC(=O)CC2)cc1	4.8%	1.6	-8.0	3.8	-1.7
COc1cc(OC)c(OC)cc1NC(=O)CC1COc2ccccc2O1 (configuration not stated)	-6.5%	-0.3	-8.7	-8.7	6.5
CC(=O)c1cc(-c2ccccc2)n(CCC(=O)NC2CCCCCCC2)c1C	7.4%	-4.9	-32.2	-9.6	-10.7
O=C(Nc1cccc(Cl)c1)N1CCCC1	-2.8%	3.1	-32.1	0.1	4.2
O=[N+]([O-])c1ccc(C2CN=C(Nc3ccccc3)S2)cc1 (configuration not stated)	3.8%	5.2	nt	-10.1	1.3
CC(C)CCC(CC(C)O)C(=O)NNC(=S)Nc1ccccc1 (configuration not stated)	0.0%	nt	nt	-9.5	nt
O=C1CC(c2ccc(S(=O)(=O)Nc3cc(C(F)(F)F)cc(C(F)(F)F)c3)cc2)CN1 (configuration not stated)	-10.0%	-1.4	-20.0	21.4	-2.3
Cn1c(=O)oc2cc(S(=O)(=O)NCCC(=O)NCCc3ccccc3)ccc21	-8.3%	-0.2	-23.5	-3.5	-0.4
N#C/C(=C/c1ccc(OCc2ccc(C(=O)O)cc2)cc1)C(=O)Nc1ccccc1	nt	-0.7	nt	2.3	nt
Cc1ccc(S(C)(=O)=NS(=O)(=O)c2cccc3nsnc23)cc1 (configuration not stated)	nt	-0.4	nt	4.5	nt
COc1ccc(-c2nnc(NC(=O)c3ccco3)s2)cc1	nt	10.3	nt	8.0	nt
Cc1cc(NC(=O)CCC(=O)N(Cc2ccco2)C2(C(=O)NC3CCCCC3)CCCCC2)no1	nt	4.7	nt	-2.4	nt
COc1cccc(OC)c1-c1nn2c(-c3ccco3)nnc2s1	-3.4%	-0.2	-40.1	-1.9	-13.9
Cc1nn(C(C)C(=O)NCC2CCCO2)c(=O)c2cc3occc3n12 (configuration not stated)	nt	-1.8	-38.0	-3.5	-0.8

These rows are one share of the data. The share of hits here may be higher or lower than overall.
